# AF4-AF9 inh: MLL-AF4/AF9 protein interaction inhibition; P42568; AlphaScreen, biotin-AF4 peptide binding to FLAG-AF9; inhibition, % at 10 µM; 350,000 tested, 0.47% active; AID 651704;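 active = every replicate reaching a set inhibition limit, whatever the replicate mean, cut at about 25% in these data; inconclusive = mean inhibition reaches that limit but some replicates miss it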;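 also: 0% = plate neutral control median and 100% = total signal loss; the record names both 10 and 1 µM as test concentration; the first replicate is given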
# Vif A3G: HIV-1 Vif–A3G interaction blockers – biochemical, TR-FRET, GST-Vif 1-94, biotin-A3G peptide, dose response retest, primary screen (AID 1117319); 260,000 tested, 0.57% active; inhibition, %, or IC50 in µM where a hit was titrated; TR-FRET GST-Vif / biotin-A3G peptide binding; higher % means a stronger effect; test concentration not given here; strong numbers were not always called active;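 active = above the screen mean plus three standard deviations and confirmed in dose response; inconclusive = results disagree or hit not tested in dose response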;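 also: Vif residues 1-94 fused to GST binding biotinylated APOBEC3G peptide 110-148; 0% = full assay without inhibitor and 100% = GST in place of GST-Vif; retest series ran down from 100 µM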
# HNF4A DNA FP: change in binding of human HNF4 alpha to DNA; 360,000 tested, 0.3% active; HNF4a-FITC DNA binding, fluorescence polarization, 1 h; P41235; activity change, % at 10 µM; in the data active = activity change above about 30%, passing the limit was not always enough;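 also: controls were the assay level and a saturating level of protein; the project sought stronger binding though the title names inhibitors; some compounds called inactive have numbers as strong as hits; positive values seem to mean higher polarization but the record does not say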
# Target sequence (P41235 whole entry, looked up): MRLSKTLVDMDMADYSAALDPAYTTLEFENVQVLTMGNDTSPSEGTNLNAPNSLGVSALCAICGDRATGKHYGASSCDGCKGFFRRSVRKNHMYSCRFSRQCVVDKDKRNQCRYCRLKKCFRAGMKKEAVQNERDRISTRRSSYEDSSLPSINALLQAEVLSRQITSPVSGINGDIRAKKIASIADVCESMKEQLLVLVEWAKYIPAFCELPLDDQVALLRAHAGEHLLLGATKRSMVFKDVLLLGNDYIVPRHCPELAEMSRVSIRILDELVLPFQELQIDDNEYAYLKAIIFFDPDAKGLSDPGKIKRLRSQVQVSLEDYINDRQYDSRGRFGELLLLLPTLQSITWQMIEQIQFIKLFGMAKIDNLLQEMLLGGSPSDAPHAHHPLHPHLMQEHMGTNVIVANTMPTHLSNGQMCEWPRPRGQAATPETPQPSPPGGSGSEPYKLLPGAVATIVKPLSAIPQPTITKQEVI
# rRNA inh HTS: inhibitors of bacterial rRNA selective over humanized ribosomes. GFP signal change (wild-type ribosome), % (no concentration beside the values). AID 720706. 350,000 tested, 1.6% active. E. coli WT GFP vs humanized-ribosome RFP mutants, fluorescence, 24 h; stronger effect = lower value; DMSO median 0, no signal -100;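 active = significant combined selectivity score with lowered wild-type GFP, culture density cut under 30%, mutant RFP and density less affected; inactive = any of these conditions unmet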; also: one replicate is shown; some compounds called inactive have numbers as strong as hits
# E coli growth: inhibitors of Escherichia coli growth. 330,000 tested, 0.21% active. OD600, 23 h; stronger effect = lower value. OD600 absorbance (test concentration not listed). AID 1053175;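 active = OD600 absorbance below the run mean of sample wells minus 3.6 SD, in any replicate, cut at about 0.56 in these data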;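 also: stock transfer was 300 nL into about 60 µL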
# ALR H2O2 inh: human ALR oxidase inhibition via reduced H2O2; P55789; purified ALR, DTT oxidation, H2O2 HRP-luminol luminescence; inhibition, % (concentration not given with the values); 290,000 tested, 3.8% active; AID 485317;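 active = mean and each replicate at 75% or more; inconclusive = only one of the two met; inactive = neither met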;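 also: stock transfer was 7.5 nL into about 7.5 µL; 0% = neutral wells and 100% = wells with inactivated enzyme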
# Target sequence (P55789 whole entry, looked up): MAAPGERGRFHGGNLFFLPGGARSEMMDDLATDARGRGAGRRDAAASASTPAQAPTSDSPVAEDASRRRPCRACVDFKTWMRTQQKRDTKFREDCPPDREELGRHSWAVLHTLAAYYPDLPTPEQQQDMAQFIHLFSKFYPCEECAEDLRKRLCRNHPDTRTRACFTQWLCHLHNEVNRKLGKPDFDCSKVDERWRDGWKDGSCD
# FGF22 binding: shifts melting point of recombinant human FGF22. Q9HCT0. recombinant FGF22 thermal shift, SYPRO orange fluorescence; percent of sucrose octasulfate shift, DMSO zero. calls only at 9.99 µM. 340,000 tested, 1.5% active. AID 651658;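 active = melting point raised past a set limit in the mean and every replicate; inconclusive = no clear call; three in four hits are not shown here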
# Target sequence (Q9HCT0 whole entry, looked up): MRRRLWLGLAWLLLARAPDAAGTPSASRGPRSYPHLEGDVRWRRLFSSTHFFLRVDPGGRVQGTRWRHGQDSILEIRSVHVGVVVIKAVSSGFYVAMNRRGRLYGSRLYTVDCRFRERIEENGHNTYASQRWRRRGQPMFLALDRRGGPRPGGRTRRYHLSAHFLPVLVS
# rRNA inh HTS OD600: also measured in rRNA inh HTS; calls as there; OD600 change, %; measured here: OD600 growth;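 optical density of the mix in the first replicate; 0 = DMSO median and -100 = no signal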
# rRNA inh HTS RFP: further read-out of rRNA inh HTS, marked with its call; RFP signal change, %; measured here: RFP humanized mutant strains;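 first replicate; 0 = DMSO median and -100 = no signal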
# Starred values were filed as active, the others as inactive; i = inactive; u = inconclusive; x = no result given; & = joins results of further samples.
AF4-AF9 inh	Vif A3G	HNF4A DNA FP	rRNA inh HTS	rRNA inh HTS OD600	rRNA inh HTS RFP	E coli growth	ALR H2O2 inh	FGF22 binding	SMILES
0.8	x	x	-61.9	-80.8	-19.4	x	x	i	O=C(C[C@H]1CC[C@@H]2[C@H](COC[C@H](O)CN2C(=O)Nc2ccc(Cl)c(Cl)c2)O1)NCc1ccc(F)cc1
-0.2	x	-0.3	11.0	-7.0	1.2	x	x	i	Cc1ccc(S(=O)(=O)NC[C@H]2O[C@@H](n3cnc4c(N)ncnc43)[C@H](O)[C@@H]2O)cc1
x	7.6%	-2.9	x	x	x	0.652	5.5	x	O=C(NCc1ccccc1)c1ccc2c(c1)C(=O)N(CC1CCCO1)C2=O (configuration not stated)
2.9	-3.7%	-0.1	-2.5	-3.3	0.5	0.679	-0.8	i	COCCCN(Cc1ccco1)C(=O)Cn1ncc2c([nH]c3ccccc32)c1=O
1.7	8.6%	-5.0	19.1	17.8	3.4	0.723	-1.6	i	Cn1c(C(=O)OC(C(=O)NC2CCCCC2)c2ccncc2)cc2sccc21 (configuration not stated)
-1.9	-6.7%	5.2	10.8	3.2	3.5	0.648	-4.3	i	COC(=O)c1ccccc1NC(=O)COC(=O)CSc1nnc(N)s1
x	-4.5%	2.4	x	x	x	0.715	-3.7	x	CC(C)N(Cc1nc(-c2ccc(Cl)cc2)no1)C(=O)/C=C/c1ccccc1
-3.6	x	2.9	7.9	1.6	-4.0	0.639	1.5	i	CS(=O)(=O)Nc1nnc(C2CCCC2)s1
-0.9	-7.4%	3.6	-17.1	-29.1	-3.2	0.662	-1.9	i	O=C(CN1CCN(S(=O)(=O)c2cccc(Br)c2)CC1)NCCc1cccs1
-5.1	x	x	1.8	4.2	1.2	x	x	i	CC=Cc1ccc2n(c1=O)C[C@H]1[C@H](CO)[C@@H](C(=O)NCc3ccccn3)N(CC3CC3)[C@@H]21 (mixture of isomers)
x	5.3%	-4.4	x	x	x	0.742	0.9	x	Cc1nnc(SCc2ccccc2)n1CC1CCCO1 (configuration not stated)
3.7	x	-2.1	-1.5	3.0	-0.9	0.72	x	i	O=C(Cn1c(=O)oc2cc(S(=O)(=O)N3CCCC3)ccc21)N1CCN(c2ccccc2F)CC1
-18.7	-9.1%	3.0	-0.3	2.5	0.3	0.715	-0.4	i	O=C(CCCCCn1c(=S)[nH]c2ccsc2c1=O)NC1CCCCC1
-1.2	x	x	3.8	4.5	-1.1	x	x	i	C[C@@H]1CCCCO[C@H](CN(C)S(=O)(=O)c2ccc(Cl)cc2)[C@@H](C)CN([C@H](C)CO)C(=O)c2cc(NC(=O)Nc3ccc4c(c3)OCO4)ccc2O1
-1.8	x	-2.2	-1.6	-8.7	2.6	0.635	-13.2	i	COc1cccc(CNC(=O)Cn2ccc3cc(S(=O)(=O)N4CCCCCC4)ccc32)c1
1.7	4.7%	-1.3	6.9	7.4	0.8	0.653	-5.7	i	O=C(Nc1ccccc1)Nc1ccc(C(F)(F)F)cn1
-1.4	-5.8%	-2.5	11.8	6.9	1.5	0.637	-5.0	i	Cc1ccc(S(=O)(=O)Nc2ccc(NC(=O)c3ccc(F)cc3)cc2)cc1
-1.8	-1.4%	-3.7	-5.0	-13.0	6.5	0.694	-1.3	i	Cc1c(NC(=O)CSc2nnnn2-c2ccc(F)cc2)c(=O)n(-c2ccccc2)n1C
-1.4	-5.6%	-0.7	-21.6	-26.4	-5.5	0.722	x	i	O=C(NC1CC1)C1CC(=O)N(c2ccccc2)C1 (configuration not stated)
x	x	-1.3	-1.2	11.4	0.5	x	x	i	O=C1C=C(OCCF)CC(c2ccc(Br)cc2)O1 (configuration not stated)
-3.5	-4.4%	1.8	-18.4	-18.2	2.4	0.715	x	i	Cc1cc(C)cc(NS(=O)(=O)CCCS(=O)(=O)Nc2cc(C)cc(C)c2)c1
x	31.0%	13.9	7.2	-12.3	6.1	0.745	9.4	x	COc1ccc(CCn2c(-c3ccco3)nc3nc4ccccc4nc32)cc1
2.4	x	2.3	-2.8	-10.7	4.8	0.695	x	i	COc1ccccc1C(=O)NNC(=O)c1ccc2ccccc2c1
-3.3	x	x	1.5	4.2	-1.8	x	x	i	CCCC(=O)Nc1ccc2c(c1)OC[C@@H](C)N(S(=O)(=O)c1cn(C)cn1)C[C@H](C)[C@@H](OC)CN(C)C2=O
3.6	-9.3%	-0.2	0.5	2.8	-1.1	0.641	-0.1	i	Cc1ccccc1C(=O)NNC(=O)c1cc(S(=O)(=O)N2CCOCC2)ccc1C
0.9	x	5.6	-0.2	9.4	2.6	0.697	-0.7	i	O=C(Nc1ccc(F)cc1F)C1CCCN1S(=O)(=O)c1ccc(-c2ccc(=O)[nH]n2)s1 (configuration not stated)
-2.0&5.3	0.7%	4.7&1.6	8.1	13.8	3.2	0.707	3.2	i	CC1(C)CCC(C)(C)NC(=S)N1
-4.4	x	-1.5	6.0	4.0	-1.5	0.669	x	i	CCCN(CC(=O)Nc1ccccc1C)C(=O)c1ccc(OCC(=O)N2CCOCC2)c(OCC)c1
1.6	x	x	2.9	2.1	5.0	x	x	i	C[C@@H]1CN([C@@H](C)CO)S(=O)(=O)c2ccc(-c3cncnc3)cc2O[C@@H]1CN(C)C(=O)C1CCCCC1
-0.6	-10.3%	1.1	7.7	5.7	2.1	0.686	-20.7	i	Cc1cccc(C(=O)NCC(=O)NCC2COc3ccccc3O2)c1 (configuration not stated)
3.3	x	-0.1	-4.1	-14.1	-1.3	0.707	x	i	COc1ccccc1/C=C/C(=O)OCC(=O)Nc1cc(C(F)(F)F)ccc1N1CCOCC1
x	-11.3%	0.9	x	x	x	0.69	0.2	x	COC(=O)C1=CNC=C(C(=O)OC)C1c1ccccc1Cl
-2.5	x	x	2.7	2.5	0.1	x	x	i	C[C@H](CO)N1C[C@H](C)[C@@H](CN(C)Cc2ccc(C(=O)O)cc2)Oc2ccc(NS(C)(=O)=O)cc2CC1=O
x	-2.2%	-0.3	x	x	x	0.748	2.4	x	C=CCn1c(SCn2nnc3ccccc3c2=O)nc2scc(-c3cccs3)c2c1=O
x	-3.2%	-1.2	x	x	x	0.757	-38.6	x	COc1ccc(N(CC(=O)Nc2ccc3c(c2)OCO3)S(=O)(=O)c2ccccc2)c(OC)c1
6.9	x	9.0	15.3	2.1	4.5	x	x	i	COc1ccc(-c2cc(NC=O)c3ncc(-c4ccc(OC)c(OC)c4)n3c2)c(OC)c1
-0.9	x	3.0	1.7	1.3	0.0	0.703	-11.3	i	COc1ccc(C(=O)N=C2SC3CS(=O)(=O)CC3N2Cc2ccc(OC)c(OC)c2)cc1 (configuration not stated)
0.6	x	x	0.4	-5.2	-2.6	x	x	i	C[C@H](CO)N1C[C@H](C)[C@H](CN(C)Cc2cccnc2)Oc2cc(-c3cncnc3)ccc2S1(=O)=O
-3.4	x	x	0.2	3.4	0.4	x	x	i	C[C@@H]1CN([C@@H](C)CO)C(=O)c2cc(NC(=O)CCCN(C)C)ccc2O[C@H]1CN(C)Cc1ccc(Cl)c(Cl)c1
5.8	0.2%	-0.1	17.3	-5.8	1.5	0.681	-3.0	i	O=[N+]([O-])c1ccc(OCCN2CCCCCC2)cc1
x	u	1.0	x	x	x	0.736	-16.4	x	CCOc1ccc(Nc2nc(C)cc(C)c2C#N)cc1
x	-3.3%	-1.5	x	x	x	0.71	-25.4	x	Cc1cccc(N(C(=O)c2ccc(CN3CCOCC3)o2)C(C(=O)NC2CCCCC2)c2ccc(F)cc2)c1 (configuration not stated)
-4.0	7.3%	-0.4	10.4	2.9	1.1	0.678	x	i	O=c1[nH]cc(I)cc1I
-0.5	x	x	3.7	3.5	-2.0	x	x	i	C[C@@H]1CN([C@@H](C)CO)C(=O)c2cccc(NS(=O)(=O)c3cn(C)cn3)c2O[C@H]1CN(C)CC1CCCCC1
3.6	0.3%	13.0	3.3	6.2	4.8	x	1.8	i	Cc1ccc(-n2cccc2/C=C2/NC(=O)N(CC(=O)Nc3cccc(C)c3)C2=O)cc1
-1.4	4.4%	-2.9	19.6	23.5	3.6	x	x	i	CCCN(CCC)CCNC(=O)Cn1cc2c(n1)-c1c(oc(C(=O)N3CCCC3)c1C)CC2
-22.8	u	1.8	13.1	7.5	9.0	x	-2.2	i	NC(=O)c1c(N)sc2c1CCCC2
-6.4	x	x	3.6	9.5	-1.1	x	x	i	COc1ccc(NC(=O)Nc2ccc3c(c2)C(=O)N([C@H](C)CO)C[C@H](C)[C@@H](CN(C)C(=O)Nc2ccc(C(F)(F)F)cc2)OCCCC[C@@H](C)O3)cc1
x	-1.1%	-1.8	x	x	x	0.657	-5.6	x	CCOC(=O)c1cccc(NC(=O)C2(S(=O)(=O)c3ccc(C)cc3)CC2)c1
5.9	x	x	-2.2	-2.0	-0.4	x	x	i	COc1ccc(NC(=O)N[C@H]2CC[C@H](CCNC(=O)c3cc(Cl)cc(Cl)c3)O[C@@H]2CO)cc1
2.5	1.7%	-1.5	-5.1	-7.2	0.1	0.658	-10.8	i	COc1ccc(-c2ncncc2-c2ccc(OC)c(OC)c2)c(O)c1
-2.4	x	x	-1.0	12.1	3.0	x	x	i	Cc1noc(C)c1S(=O)(=O)Nc1ccc2c(c1)C(=O)N([C@H](C)CO)C[C@H](C)[C@H](CN(C)S(C)(=O)=O)OCCCC[C@H](C)O2
x	x	4.0	x	x	x	0.709	-12.5	x	CC1CC1c1ccc(/C=C(\C#N)C(=O)Nc2ccc(Cl)cc2Cl)o1 (configuration not stated)
-0.3	4.2%	-2.0	20.6	14.7	-2.6	0.699	-6.3	i	O=S(=O)(Cc1ccccc1)Nn1cnnc1
-2.4	10.8%	0.0	3.5	3.4	-0.2	0.69	14.5	i	COC(c1ccccc1)c1nnc(CCC(=O)N2CCN(Cc3cccs3)CC2)o1 (configuration not stated)
-0.5	x	-0.3	-19.8	-57.3	14.9	x	x	i	CCc1ccc(S(=O)(=O)NCc2ccc(C(=O)NCCN(Cc3ccccc3)C(C)C)cc2)cc1
-1.4	x	1.0	3.0	5.5	-3.5	0.666	23.4	i	Cc1nnc(NC(=O)CSc2nccn2-c2ccc(F)cc2)s1
-12.6	x	x	1.5	9.6	3.2	x	x	i	C[C@@H]1CN([C@@H](C)CO)S(=O)(=O)c2ccc(-c3ccncc3)cc2O[C@@H]1CN(C)S(C)(=O)=O
5.5	x	0.2	-20.3	-46.5	0.0	0.794	4.7	i	COc1ccccc1N(C)C(=O)c1cc(S(=O)(=O)N2CCc3ccccc32)cn1C
-0.5&-0.4	-4.5%	-0.9	2.4&-1.4	1.7&-5.4	3.2&0.0	x	x	i	Cc1cccc(S(=O)(=O)N(C)C[C@H]2OCc3cnnn3CCCC(=O)N([C@H](C)CO)C[C@@H]2C)c1

# Three structures already listed, sorted by heavy-atom count, rising:
AF4-AF9 inh	Vif A3G	HNF4A DNA FP	rRNA inh HTS	rRNA inh HTS OD600	rRNA inh HTS RFP	E coli growth	ALR H2O2 inh	FGF22 binding	SMILES
-4.0	7.3%	-0.4	10.4	2.9	1.1	0.678	x	i	O=c1[nH]cc(I)cc1I
-22.8	u	1.8	13.1	7.5	9.0	x	-2.2	i	NC(=O)c1c(N)sc2c1CCCC2
-0.5	x	x	3.7	3.5	-2.0	x	x	i	C[C@@H]1CN([C@@H](C)CO)C(=O)c2cccc(NS(=O)(=O)c3cn(C)cn3)c2O[C@H]1CN(C)CC1CCCCC1

# Single values from above:
# O=C(CN1CCN(S(=O)(=O)c2cccc(Br)c2)CC1)NCCc1cccs1 | HNF4A DNA FP: 3.6
# CC=Cc1ccc2n(c1=O)C[C@H]1[C@H](CO)[C@@H](C(=O)NCc3ccccn3)N(CC3CC3)[C@@H]21 (mixture of isomers) | rRNA inh HTS RFP: 1.2

# Screening data deposited in PubChem by several laboratories.

# The list is partial (hit frequency here may not be typical).
